PMP22 txn prim: PMP22 gene transcription modulation; S16 Pmp22-F2sN Schwann cells (luciferase reporters placed in the Pmp22 gene), FLuc/NLuc coincidence luminescence, 24 h; Potency, µM (doses to about 57.5 µM), for inactives: at the highest dose activity change, negative = inhibition, usual class: inhibitors; hit rate 2% among 43,000; AID 1508649; active = clear falling dose curves in both reporters; inconclusive = both reporters move, but less clearly or upward; inactive = either reporter flat; the % is the NLuc reporter signal; further: on the % scale 0 is the no-effect control and ±100 the full control effect; some results filed as inactive show a strong effect at the top dose
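S16 Schwann cells carrying FLuc/NLuc coincidence reporter in the Pmp22 3' UTR treated with compound 24 h at 37C; FLuc then NLuc luminescence read sequentially by dual-luciferase reagents.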
HTT prom inh: inhibits huntingtin promoter activity; AID 1508623; HEK293 HTT promoter firefly luciferase reporter (activity 0% = vehicle and -100% = no light), 24 h; hit rate 0.93% among 48,000; Potency, µM (series often up to 57.5 µM), for the others: at the top dose activity change, negative = inhibition, hits mostly inhibitors; active means well fitted inhibition curve with a large enough effect; inconclusive means small, poorly fitted or top-dose-only effect; inactive means no such curve, though single readings can be large or run the other way; further: nearly all actives have a fitted effect of over 50% in size
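Luminescence was read after Dual-Glo reagent and a 10 min room-temperature incubation. Values were normalized to vehicle (0% activity) and zero RLU (-100% activity). Reporter HEK293 cells had been exposed to compounds (up to 57.5 uM final) for 24 h.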
The depositor's hits bear a star; u = inconclusive; x = not tested or not shown; [ ] = remark or other dose. Potency means the concentration at half of the fitted maximal effect. Not all compounds are listed; count on the stated rates, not on these rows.

SMILES | PMP22 txn prim | HTT prom inh
Cc1cccc(N2CCN(C(=O)Nc3cn(CC(C)C)c(=O)c4ccccc34)CC2)c1C | -28% | -23%
CNS(=O)(=O)c1cc(-c2nn3c(C)nnc3c3ccccc23)ccc1C | u | 49%[activator]
Cc1ccc(C)n1-c1nnc(N2CCCC(C(=O)Nc3ccc(C(C)C)cc3)C2)s1 (configuration not stated) | -65% | 16%
CCOC(=O)c1sc2cccc(F)c2c1S(=O)(=O)NCc1ccccc1Cl | -9% | -29%
CCC(=O)OCc1cnc(C)c2oc(=O)c(C(=O)Nc3ccccc3C(F)(F)F)cc12 | -21% | -9%
CCc1ccc(NC(=O)c2ccc(CN3C(=O)C(C)=C(c4ccc(C)cc4)S3(=O)=O)cc2)cc1 | -6% | u
Cc1ccc(NC(=O)CC2Sc3ccccc3NC2=O)c(Br)c1 (configuration not stated) | 5% | u
CCCNC(=O)CSc1nc2nc(C)c(Cc3ccccc3Cl)c(C)n2n1 | 63% | -18%
Cc1cccc(C)c1OCC(=O)Nc1nc(-c2ccc(Br)cc2)ns1 | 9% | -3%
Cc1cccc(-c2nc3c(cnn3-c3ccccc3)c(=O)n2-c2cccc(Cl)c2)c1 | u | -36%
COc1ccc(-c2ccc3c(N)c(C(=O)NCc4ccc(C)cc4)sc3n2)cc1 | -1% | -5%
CCN(CC)c1ccc(NS(=O)(=O)c2cc(-c3onc(C)c3C)ccc2OC)c(C)c1 | -13% | -15%
COc1ccc(CCNc2nc(-c3ccc(F)cc3)cc(C(F)(F)F)n2)cc1OC | -5% | u
Cc1ccc(N2CCN(C(=O)CCc3c(C)nc4ncnn4c3C)CC2)c(C)c1 | -34% | u
Cc1ccc(Nc2sc(C(=O)c3ccccc3)c(N)c2C(N)=O)cc1 | 3% | u
COc1ccc(-n2nc(C(=O)N3CCN(c4cccc(C(F)(F)F)c4)CC3)c3c4ccccc4n(C)c3c2=O)cc1Cl | 7% | -3%
O=C(NCC(c1cccnc1)N1CCc2ccccc2C1)C(=O)Nc1ccccc1 (configuration not stated) | -106% | -14%
Cc1cc(C)cc(NC(=O)Cn2cc(C(=O)c3cccs3)c3ccccc32)c1 | u | u
Cc1ccc(-c2nc(CCNC(=O)C(=O)Nc3c(C)cccc3C)cs2)cc1 | -11% | u
Cc1ccc(-n2c(C)nc3c(cnn3-c3ccccc3)c2=O)cc1 | -30% | -10%
Cc1ccc(S(=O)(=O)Nc2nc3n(n2)C(c2ccc(Cl)cc2)C=C(c2ccccc2)N3)cc1 (configuration not stated) | -67% | -15%
CC(=O)c1ccc(NS(=O)(=O)c2c(C)nc3scc(C)n3c2=O)cc1 | -23% | u
COc1ccc(OCCn2c(C(C)Oc3ccccc3)nc3ccccc32)cc1 (configuration not stated) | -33% | u
COc1ccc(NS(=O)(=O)c2ccc3c(c2)CC(C)N3C(C)=O)c(OC)c1 (configuration not stated) | u | -29%
Cc1ccc(C)c(NC(=O)CN2C(=O)CCc3ccccc32)c1 | 5% | -58%
O=C(NCCc1ccc(Cl)cc1)c1ccc2nc(Cc3ccccc3)oc2c1 | -1% | u
Cc1nc2nc(NCc3ccccc3Cl)[nH]n2c(=O)c1Cc1ccccc1 | 4% | -24%
COc1ccc(NC(=O)c2nnn(Cc3ccc(Br)cc3F)c2N)c(OC)c1 | 0% | -12%
O=C(CCCCn1c(=O)c2ccccc2n(Cc2cccc(F)c2)c1=O)NCCc1ccccc1 | -4% | -15%
CCOc1ccc(C(=O)Nc2onc3c2CCCC3)cc1 | u | 73%[activator]
CCC(C(=O)NCc1ccccc1Cl)n1c(=O)c2cccn2c2ccccc21 (configuration not stated) | -1% | -13%
Cc1cccc(-c2nc3c4ccccc4nc(NCc4ccc(F)cc4)n3n2)c1 | -11% | 37%[activator]
COc1ccc(Cl)cc1NC(=O)Cn1c(=O)n(Cc2ccco2)c(=O)c2cccnc21 | -47% | u
COc1ccc(NC(=O)c2oc3ccccc3c2NC(=O)Cc2cccs2)c(OC)c1 | u | -7%
CC12CN3CC(C)(CN(C1)C3c1ccc(OCc3ccccc3)cc1)C2=O (configuration not stated) | 5% | -11%
COCCNC(=O)CCc1nc2cccnc2n1Cc1ccc(OC)cc1 | -30% | -7%
CC(=Cc1ccccc1)C=C1SC(=S)N(CC(=O)O)C1=O | x | 11%
Cc1ccc(NC(=O)c2c(C)nc3sc(C(=O)Nc4ccc(F)cc4)c(N)c3c2-c2ccc(C)o2)c(C)c1 | 3% | 2%
CC(C)CN1CCc2nc(Nc3ccc(F)cc3F)ncc2C1 | 8% | 53%[activator]
CCCCOC(=O)c1ccc(NC(=O)c2cc(-c3cccs3)on2)cc1 | -20% | -7%
Cc1ccc(Cl)cc1NC(=O)C(C)n1nnc2sc3c(c2c1=O)CCCC3 (configuration not stated) | -26% | 11%
CCc1ccc(-n2c(=O)c3cccnc3n2CC(=O)NCc2ccc(C)cc2)cc1 | 16% | -9%
O=C(Nc1nnc2n1CCS2)c1ccccc1C(F)(F)F | -2% | 1%
Cc1cccc(-c2nc3nc(C)cc(N4CCN(c5ccccc5)CC4)n3n2)c1 | -20% | -1%
O=C(CC(c1cccs1)N1Cc2ccccc2C1=O)Nc1ccccc1 (configuration not stated) | 16% | -22%
C=Cc1ccc(Cn2ccn(-c3ccc(F)c(F)c3)c(=O)c2=O)cc1 | -39% | -10%
CCOc1ccc(Br)cc1S(=O)(=O)Nc1cccc(-c2ccc(OC)nn2)c1 | -10% | u
COc1cccc(CCNC(=O)c2c(O)nc3ccccn3c2=O)c1 | -7% | 17%
CCCCn1c(=O)c2oc3ccccc3c2n(CC(=O)Nc2cc(C)ccc2C)c1=O | u | -13%
CC(=O)c1ccc(NC(=O)CN(C)S(=O)(=O)c2cc3c(cc2Cl)NC(=O)CO3)cc1 | -3% | -9%
CC(C)Oc1ccc(CNC(=O)CCCn2c(=O)c3cccn3c3cccnc32)cc1 | u | -15%
O=C(Cn1nnc(-c2ccc(C(F)(F)F)cc2)n1)NCCc1ccccc1 | -17% | -6%
COc1ccccc1NC(=O)c1sc2nc(C)c(C(=O)Nc3ccc(C)cc3C)c(-c3ccc(Br)cc3)c2c1N | 14% | -18%
Cc1ccc(N(CC(=O)Nc2ccc(C)c(Cl)c2)S(=O)(=O)c2cccs2)cc1 | -11% | -25%
COc1ccc(NC(=O)CCCN2C(=O)C(c3ccccc3)Oc3cccnc32)c(OC)c1 (configuration not stated) | u | -21%
CCSC1=NC2(CCN(C(=O)NC3CCCCC3)CC2)N=C1c1ccc(OC)cc1 | 13% | -34%
Cc1ccc(C2C=C(c3ccc(Cl)cc3)Nc3nc(NC(=O)c4ccco4)nn32)cc1 (configuration not stated) | u | u
COc1ccc(NC(=O)CCCSc2nc(-c3ccco3)cc(C(F)(F)F)n2)cc1 | 5% | -29%
CC(C)Cn1c(=O)c2sccc2n2c(CCCC(=O)NCCc3ccc(Cl)cc3)nnc12 | -23% | -16%
CCCCNc1nc2c(S(=O)(=O)c3ccc(Cl)cc3)nnn2c2ccsc12 | 20µM* | -9%

By substructure, those above with a CF3 group (6)
SMILES | PMP22 txn prim | HTT prom inh
CCC(=O)OCc1cnc(C)c2oc(=O)c(C(=O)Nc3ccccc3C(F)(F)F)cc12 | -21% | -9%
COc1ccc(CCNc2nc(-c3ccc(F)cc3)cc(C(F)(F)F)n2)cc1OC | -5% | u
COc1ccc(-n2nc(C(=O)N3CCN(c4cccc(C(F)(F)F)c4)CC3)c3c4ccccc4n(C)c3c2=O)cc1Cl | 7% | -3%
O=C(Nc1nnc2n1CCS2)c1ccccc1C(F)(F)F | -2% | 1%
O=C(Cn1nnc(-c2ccc(C(F)(F)F)cc2)n1)NCCc1ccccc1 | -17% | -6%
COc1ccc(NC(=O)CCCSc2nc(-c3ccco3)cc(C(F)(F)F)n2)cc1 | 5% | -29%

(listing goes on)
SMILES | PMP22 txn prim | HTT prom inh
COc1ccccc1CNC(=O)C1CCN(c2nnc(C)c3c(C)n(-c4ccccc4)nc23)CC1 | -14% | -17%
Cc1ccc(CCNC(=O)c2ccc3c(c2)N(Cc2ccccc2)C(=O)c2ccccc2S3=O)cc1 (configuration not stated) | -82% | -11%
O=C(Cn1c(=O)n(Cc2cccs2)c(=O)c2cccnc21)Nc1ccccc1F | -17% | -14%
O=C(Nc1ccc(Cl)cc1)c1cc(S(=O)(=O)NC2CCCCCC2)ccc1F | u | u
O=C(Cn1c(=O)nc(-c2ccccc2)c2cc(Cl)ccc21)NCc1ccc(Cl)cc1 | u | -24%
CCOc1ccc(/C=C/c2nc(C#N)c(N3CCCCCC3)o2)cc1 | -11% | -8%
CCOc1ccc(CCNC(=O)C2CCN(c3ncnc4c3nc3n4CCCCC3)CC2)cc1 | -5% | -31%
COc1ccc(NS(=O)(=O)c2ccc(-n3cccn3)cc2)cc1OC | -40% | 7.9µM*
CN(C(=O)Cn1c(=O)n(CCC(=O)NCc2ccc3c(c2)OCO3)c(=O)c2sccc21)c1ccccc1 | -1% | -6%
O=C(Nc1ccccc1Cl)c1sc2cccc(Cl)c2c1Cl | -6% | 16%
CC(=O)N1CCc2nc3sc(C(=O)Nc4ccc(Cl)cc4F)c(N)c3c(C(F)(F)F)c2C1 | -8% | 0%
Cc1ccc(SCc2nc(-c3ccc(C(=O)Nc4cc(C)ccc4C)cc3)oc2C)cc1 | u | u
Cc1nc(-c2ccccc2)sc1-c1ccc(SCC(=O)Nc2ccccc2)nn1 | -2% | 10%
COc1ccc(N(Cc2nnc3n2CCCCC3)C(=O)Nc2cccc(C)c2)cc1Cl | -2% | -4%
O=C(Cn1c(=O)n(Cc2ccco2)c(=O)c2sc3ccccc3c21)Nc1ccccc1C(F)(F)F | u | -15%
COc1ccc(NC(=O)C2CCN(S(=O)(=O)c3c(C)noc3/C=C/c3ccco3)CC2)cc1 | -28% | u
O=C(Cn1ncc2c3ccccc3n(Cc3ccccc3F)c2c1=O)NCCCc1ccccc1 | -14% | -26%
CCCCc1c(C)nc2c(-c3ccc(Cl)cc3)c(C)[nH]n2c1=O | 11µM* | -15%
Cc1c(Cl)cccc1NC(=O)CCn1nc(C)c2c(C)n(-c3ccccc3)nc2c1=O | 2% | -8%
COc1ccc(NC(=O)c2nnn(Cc3nc(-c4cc(OC)c(OC)c(OC)c4)oc3C)c2C)cc1 | 9% | -2%
CCCCN(C)S(=O)(=O)c1cc(-c2cc(C)no2)ccc1C | u | u
COc1ccccc1NC(=O)C1=C(C)Nc2c(C(=O)Nc3cccc(C)c3)cnn2C1c1ccccc1Cl (configuration not stated) | 15% | -9%
CC(C)(C)OC(=O)N1CCC(c2c(C(=O)NCCN3CCC(Cc4ccccc4)CC3)cnn2-c2ccc(F)cc2)CC1 | u | u
Cc1ccc(CNC(=O)c2ccc(NC(=O)N3CCSc4ncccc43)cc2)cc1 | -4% | -30%
Cc1cc(C)n2nc(SCC(=O)Nc3cccc(C(F)(F)F)c3)nc2n1 | u | u
CNc1ncnc2c1cnn2-c1ccc(C)c(C)c1 | -17% | 62%[activator]
Cc1ccc(C)c(CS(=O)(=O)c2cn(CC(=O)N(C(C)C)C(C)C)c3ccccc23)c1 | u | -27%
CCOC(=O)C1CCN(C(=O)Cn2nc(CC)n3c(cc4occc43)c2=O)CC1 | -17% | -10%
CCCCCn1c(=O)[nH]c2cc(C(=O)NC(C)CC)ccc2c1=O (configuration not stated) | 2% | -4%
COc1ccccc1NC(=O)c1cccc(S(=O)(=O)N2CCCCCC2)c1 | u | u
COc1ccc(CNC(=O)CSCc2ccc(C)cc2)c(OC)c1 | -6% | -20%
CCOC(=O)c1c(C)oc2ncnc(N3CCN(c4ccccc4OC)CC3)c12 | -3% | -24%
CN(C)CCNC(=O)c1ccc2c(c1)NC(=O)C(CS(=O)(=O)Cc1cccc(Br)c1)N2 (configuration not stated) | u | -7%
CCOC(=O)c1c(C)[nH]c(C)c1S(=O)(=O)N(C)CC(=O)Nc1ccc(OC)cc1 | 3% | -11%
Fc1ccc(CNc2nc3ccc(Cl)cc3n3nnnc23)cc1 | 10% | -5%
CCN(CC)S(=O)(=O)c1nnc(NC(=O)c2ccc(Br)cc2)s1 | -26% | u
CCOc1ccc(-c2cc3c(=O)n(CC(=O)Nc4c(C)cccc4C)ccn3n2)cc1 | -11% | -3%
Cc1oc(-c2ccc(C(=O)NCc3ccccc3Cl)cc2)nc1CN1CCc2ccccc21 | -50% | 14µM*
CC(C)Oc1ccc(CNC(=O)Nc2ccc3c(c2)N(C)C(=O)c2ccccc2S3)cc1 | -28% | 25µM*
CCOC(=O)c1cc2c(=O)n3ccccc3nc2n(Cc2ccco2)c1=NC(=O)c1c(F)cccc1Cl | 15µM* | -22%

High-throughput results from PubChem.
